# MLL AF4-AF9 inh: inhibitors of AF4 peptide binding to AF9, primary screen, biochemical, AlphaScreen, biotin-AF4 peptide, FLAG-AF9, single point; inhibition, % at 10 µM; AID 651704, 2012; hit rate 0.47% among 350,000; Protein AF-9 (Homo sapiens), P42568;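 active = every replicate reaching a set inhibition limit, whatever the replicate mean, cut at about 25% in these data; inconclusive = mean inhibition reaches that limit but some replicates miss it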;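 also: 0% = plate neutral control median and 100% = total signal loss; the record names both 10 and 1 µM as test concentration; the first replicate is given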
# Target sequence (P42568 whole entry, looked up): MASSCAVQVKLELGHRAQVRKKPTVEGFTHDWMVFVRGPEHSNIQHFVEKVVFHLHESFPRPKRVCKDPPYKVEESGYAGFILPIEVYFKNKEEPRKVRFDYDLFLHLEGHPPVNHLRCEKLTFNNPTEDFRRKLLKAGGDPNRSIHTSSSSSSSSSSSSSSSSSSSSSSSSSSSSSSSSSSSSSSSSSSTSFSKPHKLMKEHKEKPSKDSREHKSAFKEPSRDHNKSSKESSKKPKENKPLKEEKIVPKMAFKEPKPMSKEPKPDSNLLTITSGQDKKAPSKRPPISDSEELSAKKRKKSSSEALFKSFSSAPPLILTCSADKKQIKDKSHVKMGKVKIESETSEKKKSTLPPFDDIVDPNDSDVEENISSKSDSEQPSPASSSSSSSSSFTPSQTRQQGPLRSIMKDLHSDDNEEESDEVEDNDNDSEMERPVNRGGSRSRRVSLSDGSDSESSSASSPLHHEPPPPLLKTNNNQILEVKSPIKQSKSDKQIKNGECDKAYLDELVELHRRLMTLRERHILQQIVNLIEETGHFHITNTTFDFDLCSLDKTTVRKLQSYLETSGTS
# T cruzi inh: inhibitors of intracellular T. cruzi growth, primary screen, luminescence, NIH3T3 host cells. T. cruzi beta-gal in NIH3T3, 90 h. inhibition, % (test concentration not listed). hit rate 1.4% among 300,000. AID 1885, 2009;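 active = mean inhibition across valid replicates above about 55%, limit read from the data; inconclusive = mean below that limit but half or more replicates reach it; inactive = mean below it, under half of replicates reach it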;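 also: signal also drops with host cell toxicity which is not excluded here; 0% = plate median of DMSO wells and 100% = zero luminescence signal; higher percent means less beta-gal luminescence so fewer parasites; stock transfer was 50 nL into about 50 µL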
# RanGTP-Imp inh: inhibitors of RanGTP-importin-beta interaction, primary screen, biochemical, FRET, CFP-Ran, YFP-importin-beta, homogeneous; Ran GTPase (GTP-bound) - importin-beta complex; cell-free CFP-Ran/YFP-importin-beta FRET ratio; inhibition, % (test concentration not listed); hit rate 1.1% among 300,000; AID 2216, 2009;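 active = most replicates above 15%; inconclusive = exactly half above 15%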;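 also: 0% = DMSO wells and 100% = Ran loaded with GDP instead of GTP; wells of about 40 µL received 100 nL stock; the first replicate is given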
# Calb FLC: C. albicans growth inhibition with fluconazole, primary screen, CaCi-2 strain, Alamar Blue fluorescence | AID 1979, 2009 | growth inhibition, % (concentration not given with the values) | C. albicans CaCi-2 (fluconazole-resistant clinical isolate) + fluconazole, 48 h | hit rate 0.57% among 300,000;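 active = most replicates above 75%; inconclusive = exactly half above 75%; inactive = most below 75%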;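 also: all wells also contain fluconazole at 8 µg/ml as a sub-toxic cotreatment; 0% = median of DMSO wells and 100% = median of geldanamycin control wells; wells of about 8 µL received 7.5 nL stock; the first replicate is given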
# ALR H2O2 inh: inhibitors of human ALR sulfhydryl oxidase, primary screen, biochemical, H2O2 detection, HRP-luminol luminescence, single point; purified ALR, DTT oxidation; inhibition, % (no concentration beside the values); hit rate 3.8% among 290,000;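 active = mean and each replicate at 75% or more; inconclusive = only one of the two met; inactive = neither met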;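 also: stock transfer was 7.5 nL into about 7.5 µL; 0% = neutral wells and 100% = wells with inactivated enzyme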
# Target sequence (P55789 whole entry, looked up): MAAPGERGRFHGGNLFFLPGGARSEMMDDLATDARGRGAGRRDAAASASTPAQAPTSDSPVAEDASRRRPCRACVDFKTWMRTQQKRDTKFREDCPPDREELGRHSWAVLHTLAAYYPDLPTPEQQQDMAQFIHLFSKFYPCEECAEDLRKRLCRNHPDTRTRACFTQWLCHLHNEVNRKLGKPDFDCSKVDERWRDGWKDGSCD
# Beta cell apopt: inhibitors of cytokine-induced beta cell apoptosis, primary screen, luminescence | INS-1E cytokine-induced death, ATP luminescence, 48 h; percent of positive-control rescue, neutral wells zero | protection from apoptosis, % (concentration not given with the values) | hit rate 0.8% among 300,000 | AID 435005, 2010;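 active = all replicates at 75% or more, or half of them and the mean; inconclusive = half reach 75% but not the mean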;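 also: 0% = cytokine-treated negative control wells and 100% = positive control rescue; higher means more ATP so stronger rescue from cytokine killing; wells of about 40 µL received 100 nL stock; the first replicate is given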
# Ecoli rRNA inh: reduced GFP signal of wild-type E. coli, primary screen, bacterial rRNA inhibitor project, GFP/RFP fluorescence, OD600, single point. E. coli WT GFP vs humanized-ribosome RFP mutants, 24 h; stronger effect = lower value; DMSO median 0, no signal -100. AID 720706, 2013. hit rate 1.6% among 350,000. GFP signal change (wild-type ribosome), % (concentration not given with the values);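 active = significant combined selectivity score with lowered wild-type GFP, culture density cut under 30%, mutant RFP and density less affected; inactive = any of these conditions unmet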; also: one replicate is shown; some compounds called inactive have numbers as strong as hits
# FGF22 binding: binders of human FGF22 protein, primary screen, FGF22 synaptogenesis inhibitor project, biophysical, thermal shift, single point; Fibroblast growth factor 22 (Homo sapiens), Q9HCT0; recombinant FGF22 thermal shift, SYPRO orange fluorescence; percent of sucrose octasulfate shift, DMSO zero; calls only at 9.99 µM; hit rate 1.5% among 340,000; AID 651658, 2012;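 active = melting point raised past a set limit in the mean and every replicate; inconclusive = no clear call; three in four hits are not shown here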
# Target sequence (Q9HCT0 whole entry, looked up): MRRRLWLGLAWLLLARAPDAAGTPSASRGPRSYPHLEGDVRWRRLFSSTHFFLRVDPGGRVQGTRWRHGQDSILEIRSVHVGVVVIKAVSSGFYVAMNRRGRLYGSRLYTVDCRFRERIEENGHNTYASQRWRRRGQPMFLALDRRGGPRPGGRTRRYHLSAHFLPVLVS
# Ecoli rRNA inh OD600: further read-out of Ecoli rRNA inh, marked with its call; OD600 change, %; measured here: OD600 growth;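 optical density of the mix in the first replicate; 0 = DMSO median and -100 = no signal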
# Ecoli rRNA inh RFP: recorded beside Ecoli rRNA inh, whose call it bears; RFP signal change, %; measured here: RFP humanized mutant strains;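 first replicate; 0 = DMSO median and -100 = no signal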
# Active calls of the source: *; i = inactive; ? = inconclusive; · = not tested or not shown. An excerpt; count on the stated rates, not on these rows.
# The first two records (preview)
SMILES,MLL AF4-AF9 inh,T cruzi inh,RanGTP-Imp inh,Calb FLC,ALR H2O2 inh,Beta cell apopt,Ecoli rRNA inh,Ecoli rRNA inh OD600,Ecoli rRNA inh RFP,FGF22 binding
Cc1ccc(S(=O)(=O)N(C)CC(=O)O/N=C(\N)c2cccc([N+](=O)[O-])c2)cc1,·,-6.4,5.5,-3.5,·,-2.8,·,·,·,·
CCC1(CC)NC(=O)N(CC(=O)OCC(=O)Nc2cc(C)ccc2C)C1=O,·,3.7,-0.4,5.1,-40.4,·,·,·,·,·

# The whole of this part, repeating the preview:
SMILES,MLL AF4-AF9 inh,T cruzi inh,RanGTP-Imp inh,Calb FLC,ALR H2O2 inh,Beta cell apopt,Ecoli rRNA inh,Ecoli rRNA inh OD600,Ecoli rRNA inh RFP,FGF22 binding
Cc1ccc(S(=O)(=O)N(C)CC(=O)O/N=C(\N)c2cccc([N+](=O)[O-])c2)cc1,·,-6.4,5.5,-3.5,·,-2.8,·,·,·,·
CCC1(CC)NC(=O)N(CC(=O)OCC(=O)Nc2cc(C)ccc2C)C1=O,·,3.7,-0.4,5.1,-40.4,·,·,·,·,·
Cc1cc(C)c2c(c1)-c1c(ssc1=S)C(C)(C)N2C(=O)CN1C(=O)c2ccccc2C1=O,·,15.1,0.4,-1.8,-3.6,6.9,·,·,·,·
COc1ccc(NS(=O)(=O)c2ccc3[nH]c(=O)[nH]c3c2)cc1,-4.0,-11.4,-1.1,-0.2,1.7,·,2.9,5.6,-0.8,i
Cc1cccc(NC(=O)c2ccc3nc(N4CCOCC4)sc3c2)c1C,0.4,4.9,-0.5,10.3,·,-1.5,5.7,9.2,-1.7,i
O=[N+]([O-])c1ccccc1S(=O)(=O)Nc1ccc(-c2ccc(N3CCCC3)nn2)cc1,-1.6,30.4,-0.6,-1.3,·,-3.4,-10.1,-18.2,-1.4,i
CN(c1ccccc1)S(=O)(=O)c1cccc(C(=O)NC2CC(C)(C)NC(C)(C)C2)c1,0.4,·,·,·,-2.0,-1.5,9.4,11.4,2.3,i
C=C(C)C1CC=C(CN2CCN(Cc3ccccc3)CC2)CC1 (centres undefined),5.6,57.3*,0.2,-7.5,-26.4,-0.5,7.8,-0.7,1.6,i
C=CCn1c(=NC(=O)CN2C(=O)CCC2=O)sc2cccc(OC)c21,-4.5,3.5,-6.9,-4.3,0.5,-1.8,-7.4,-10.2,3.7,i
Cc1ccccc1/[N+]([O-])=C/c1ccncc1,·,-10.7,4.8,18.6,22.7,·,·,·,·,·
CCC1CCc2c(c3ccccc3[nH]c2=O)O1 (centres undefined),·,8.0,0.3,-6.8,-1.8,-16.8,·,·,·,·
COCCNc1nc(-c2cc(-c3ccccc3)on2)cc(C(C)C)n1,·,22.2,1.6,-13.1,2.3,-1.2,·,·,·,·
COc1ccc(CN2CCN(Cc3nc4ccccc4s3)CC2CCO)c(C)c1C (centres undefined),3.3,61.0*,-0.4,-4.8,0.9,7.0,-0.6,1.2,0.7,i
CCC(O)CC(C(=O)NNc1ccccc1)C(=O)NNc1ccccc1 (centres undefined),0.7,5.3,5.3,100.4*,98.6*,0.9,7.4,10.9,-3.5,i
Cc1ccc(S(=O)(=O)N2CCN(C(C)C)CC2)cc1,0.3,11.4,-2.3,4.9,2.4,-3.6,8.6,-13.3,4.4,i
COc1ccc(C(CNC(=O)c2cc(SC)ccc2Cl)N(C)C)cc1 (centres undefined),-8.4,5.3,-3.2,?,0.0,-10.1,7.2,1.7,-3.6,i
O=C(CCNS(=O)(=O)c1ccc(Cl)cc1)N1CCN(c2ccccn2)CC1,1.1,-4.0,-1.2,-6.5,0.6,-4.6,-2.7,1.8,0.9,i
CCCc1ccc(NC(=O)C2CCCN(c3cnccn3)C2)cc1 (centres undefined),-1.6,37.9,2.8,-0.3,1.9,·,-7.6,-1.3,-0.9,i
O=c1nc2ccc(Cl)cn2c2ccc(S(=O)(=O)N3CCCCC3)cc12,0.6,5.8,7.8,?,6.8,-2.6,-35.3,-33.5,11.9,i
O=C(CSc1nnc(COc2ccc(Cl)cc2)o1)N1CCCCC1,2.0,9.8,3.5,-4.0,-5.2,-3.4,-5.1,-6.9,3.3,i
CCCn1c(NCc2cccc(OC)c2O)nc2ccccc21,·,-12.1,-8.4,-7.9,94.2*,-0.6,·,·,·,·
CC(CC(=O)Nc1ccc2c(c1)OCO2)c1ccccc1 (centres undefined),1.3,-6.2,-1.0,-14.5,·,·,0.9,6.9,-3.4,i
Fc1ccc(NC2=NCCCCC2)cc1,-1.5,-24.8,-0.3,-19.4,-7.4,-4.7,16.1,13.1,2.7,i
COc1cccc(N(CC(=O)NCCSCc2ccc(C)cc2)S(C)(=O)=O)c1,-2.1,4.5,-3.5,12.9,9.6,-10.6,-8.5,-11.6,2.3,i
COc1ccc(CCN=C(N)NS(=O)(=O)c2ccc(F)cc2)cc1OC,-1.3,-3.4,-3.2,-1.3,-11.3,·,9.1,7.8,3.3,i
COc1ccc(-n2ncc3c2CC(C)(C)CC3NC(=O)c2cn[nH]c2)cc1 (centres undefined),0.1,-6.5,-1.4,-3.7,-3.2,-5.7,2.8,8.7,-3.3,i
CC1(C)CC(=O)C2=C(C1)Nc1ccccc1NC2c1cccnc1 (centres undefined),·,2.2,0.5,10.8,?,-4.3,12.1,7.8,0.5,·
C=CCNc1nnc(Sc2ncccc2[N+](=O)[O-])s1,-4.2,-8.2,-0.1,26.2,-8.9,3.5,12.2,-6.7,0.4,i
O=C(Nc1ccon1)c1cccc(S(=O)(=O)N2CCCCC2)c1,-1.1,15.2,-1.3,-3.9,1.6,3.4,2.2,-3.4,-3.0,i
COc1ccc(OC)c(C(c2c(C)[nH][nH]c2=O)c2c(C)[nH][nH]c2=O)c1,-3.1,7.8,1.5,-7.8,-16.4,-7.0,14.1,8.4,-7.4,i

# Sorted by length of the SMILES (descending): four of the compounds above
SMILES,MLL AF4-AF9 inh,T cruzi inh,RanGTP-Imp inh,Calb FLC,ALR H2O2 inh,Beta cell apopt,Ecoli rRNA inh,Ecoli rRNA inh OD600,Ecoli rRNA inh RFP,FGF22 binding
COc1ccc(CCN=C(N)NS(=O)(=O)c2ccc(F)cc2)cc1OC,-1.3,-3.4,-3.2,-1.3,-11.3,·,9.1,7.8,3.3,i
CC1(C)CC(=O)C2=C(C1)Nc1ccccc1NC2c1cccnc1 (centres undefined),·,2.2,0.5,10.8,?,-4.3,12.1,7.8,0.5,·
O=C(CSc1nnc(COc2ccc(Cl)cc2)o1)N1CCCCC1,2.0,9.8,3.5,-4.0,-5.2,-3.4,-5.1,-6.9,3.3,i
CCCn1c(NCc2cccc(OC)c2O)nc2ccccc21,·,-12.1,-8.4,-7.9,94.2*,-0.6,·,·,·,·

# Next entries follow:
SMILES,MLL AF4-AF9 inh,T cruzi inh,RanGTP-Imp inh,Calb FLC,ALR H2O2 inh,Beta cell apopt,Ecoli rRNA inh,Ecoli rRNA inh OD600,Ecoli rRNA inh RFP,FGF22 binding
C[C@@H]1CN(C(=O)c2nc3ccc(Cl)cn3c2CN(C)CCc2cnn(C)c2)C[C@H](C)O1,-3.6,5.9,8.7,-19.6,-23.3,-1.8,20.3,17.4,0.9,i
S=C(NC1CCCCCC1)NC1CCCC1,2.3,8.0,?,-32.6,17.2,0.9,5.0,5.3,-0.6,i
CCCCNc1ccc2nsnc2c1[N+](=O)[O-],·,3.2,-0.1,-2.5,-17.7,-2.2,·,·,·,·
CCCNC(=O)c1ccc(C2SCC(=O)N2CCc2ccccc2)cc1 (centres undefined),2.2,13.1,-4.5,-29.9,-9.4,7.4,-5.6,-13.1,-2.9,i
CC(C)N1CCc2c(sc(NC(=O)c3ccc([N+](=O)[O-])o3)c2C(N)=O)C1,5.8,20.0,9.6,-1.3,-4.1,71.3,-55.5,-79.3,-19.4,i
COc1ccc2nc(C)cc(SCC(=O)N3CCCCC3)c2c1,-2.2,17.5,1.2,-0.6,46.4,-5.8,-12.9,-6.0,-2.0,i
O=C(/C=C/c1ccccc1)NC(=S)NNS(=O)(=O)c1ccccc1,-2.4,8.7,?,6.0,·,2.7,-4.1,-6.5,0.3,i
CC1(c2ccc(OC(F)F)cc2)NC(=O)N(CC(=O)Nc2ccccc2)C1=O (centres undefined),0.5,-0.7,-1.6,2.7,-3.2,-7.3,-0.2,-6.6,0.3,i
Cc1ccc(Oc2ccc(Cl)cc2N)cc1,-2.3,0.6,2.8,-12.3,20.0,-4.1,-57.2,-67.5,-15.7,i
CN1C2CCC1/C(=C\c1ccc(F)cc1)C(=O)/C2=C/c1ccc(F)cc1,·,26.6,2.3,46.7,-0.9,2.1,·,·,·,·
COC(=O)NNC(=O)COc1cc(C)c(Br)cc1C(C)C,·,-14.0,-1.9,-1.8,-4.1,4.9,·,·,·,·
O=C(NCc1ccc2c(c1)OCO2)c1ccc(CS(=O)(=O)Cc2cccc(Cl)c2)o1,-34.9,19.5,1.3,-4.3,-0.8,0.6,-4.0,4.1,0.4,i
O=C(COC(=O)CSc1ccc([N+](=O)[O-])cc1)NCC1CCCO1 (centres undefined),1.8,-15.7,1.0,9.3,99.0*,-9.9,4.0,6.7,-0.3,i
CCOc1ccc(/C=N/NC(=O)Cn2ccnc2C)cc1,-0.6,0.7,-0.3,-6.7,·,·,3.8,4.5,-3.3,i
CCOC(=O)c1cc(CC)sc1/N=C/c1c(O)ccc2ccccc12,13.8,7.7,-0.8,1.0,-9.9,-7.5,14.8,6.9,2.5,i
COc1ccccc1NC(=O)CSc1nc2ccccc2nc1N1CC(C)OC(C)C1 (centres undefined),1.9,-2.3,1.4,5.4,-18.8,1.9,-5.8,-0.7,-5.3,i
CC[C@@H](C)CN1C(=O)N[C@@H](c2ccccc2)C(C(C)=O)=C1C,-18.3,-2.9,-0.8,-4.8,-9.9,6.0,2.8,5.6,4.4,i
CC(=O)Nc1ccccc1NC(=O)c1ccc(C)cc1C,-0.5,-9.3,-2.1,-8.4,-2.1,-4.5,5.9,9.6,-2.4,i
CCC(=O)Nc1ccc2nc(C3CC3)n(Cc3ccccc3)c(=O)c2c1,·,38.1,3.6,0.3,-0.4,·,·,·,·,·
COC(=O)c1ccc(N2CCN(C(=O)c3ccccc3)CC2)c(NC(C)=O)c1,1.5,-5.0,-1.3,?,-5.8,-2.1,4.4,-2.8,0.3,i

# Limited to Beta cell apopt, FGF22 binding and T cruzi inh, for 2 of the compounds above:
compound | Beta cell apopt | FGF22 binding | T cruzi inh
CCC(=O)Nc1ccc2nc(C3CC3)n(Cc3ccccc3)c(=O)c2c1 | · | · | 38.1
COC(=O)c1ccc(N2CCN(C(=O)c3ccccc3)CC2)c(NC(C)=O)c1 | -2.1 | i | -5.0
